UUG fidelity – modulators of start codon recognition fidelity in yeast; S. cerevisiae UUG-firefly luciferase reporter, luminescence/redox ratio; hit rate 0.13% among 350,000; activity score, % at 18.7 µM;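 active = replicate mean at a twofold rise or more, about +100% in these data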;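 also: firefly luciferase made from a UUG start codon reports start codon fidelity; reporter light over untreated wells divided by growth signal over untreated wells; some hits fall short of that in this replicate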
HIV Env fusion – blocks HIV Env-driven cell-cell fusion | AID 651610 | hit rate 1.1% among 360,000 | HeLa-JRFL Env/CEM21 cell fusion, luciferase | inhibition, % at 12.3 µM;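 active = mean replicate inhibition score of at least 50 and every replicate individually at or above 50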;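 also: 0% = plate neutral controls and 100% = maraviroc near 300 nM; one replicate is shown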
* marks the source's active call; other numbers are inactive results; & = joins results of further samples; [ ] = remark or other dose.

SMILES | UUG fidelity | HIV Env fusion
CC(C)CC#Cc1ccc2c(c1)O[C@@H](CN(C)C(=O)CN(C)C)[C@@H](C)CN([C@@H](C)CO)S2(=O)=O | 16 | 14[16.7 µM]
COC(=O)C[C@H]1CC[C@@H]2[C@H](COc3ccc(NC(=O)c4ccccc4OC)cc3C(=O)N2C)O1 | 7 | -8[16.7 µM]
C[C@@H]1CN([C@@H](C)CO)C(=O)c2cccc(NC(=O)Nc3ccc(C(F)(F)F)cc3)c2O[C@H]1CN(C)Cc1ccc(C(F)(F)F)cc1 | -13 | 76*[16.7 µM]
Cc1noc(C)c1S(=O)(=O)Nc1ccc2c(c1)CC(=O)N([C@@H](C)CO)C[C@H](C)[C@@H](CN(C)Cc1ccc(C(=O)O)cc1)O2 | -28 | 2[16.7 µM]
C[C@H](CO)N1C[C@H](C)[C@@H](CN(C)Cc2ccccc2)Oc2ccc(NS(=O)(=O)c3ccccc3)cc2CC1=O | 0 | 6[16.7 µM]
C[C@@H]1CN([C@H](C)CO)C(=O)c2cc(NC(=O)Cc3ccccc3)ccc2O[C@@H]1CN(C)C(=O)NC1CCCCC1 | 15 | -26[16.7 µM]
Cc1ccc(S(=O)(=O)N[C@@H]2C=C[C@H](CC(=O)N3CCC(Cc4ccccc4)CC3)O[C@@H]2CO)cc1 | 18 | 5[16.7 µM]
N#C[C@H]1[C@H](c2ccccc2)[C@@H](CO)N1S(=O)(=O)c1ccc(-c2ccccc2)cc1 | -3 | 17[16.7 µM]
C[C@H](CO)N1C[C@H](C)[C@H](CN(C)S(=O)(=O)c2cccs2)Oc2ccc(NS(C)(=O)=O)cc2CC1=O | -5 | 12[16.7 µM]
O=C(C[C@H]1CC[C@@H]2[C@H](COC[C@H](O)CN2Cc2cc(F)ccc2F)O1)N1CCc2ccccc2C1 | -9 | -8[16.7 µM]
C[C@@H]1CN([C@@H](C)CO)C(=O)c2cc(NS(=O)(=O)c3ccccc3)ccc2O[C@@H]1CN(C)Cc1ccc(C(=O)O)cc1 | 15 | 13[16.7 µM]
C[C@@H]1CN([C@H](C)CO)C(=O)c2cc(NS(=O)(=O)c3cccs3)ccc2O[C@H]1CN(C)S(=O)(=O)c1ccccc1 | 9 | 8[16.7 µM]
CC1CC(C)CN(C(C(=O)NC2CCCCC2)c2cc3ccccc3o2)C1 (stereo unspecified) | 29 | -14
C/C=C/c1cnc2c(c1)C(=O)N([C@@H](C)CO)C[C@@H](C)[C@H](CN(C)C(=O)NC1CCCC1)O2 | 10 | -7[16.7 µM]
O=C(C[C@H]1C[C@@H]2c3cc(NC(=O)C4CCOCC4)ccc3O[C@@H]2[C@H](CO)O1)NCc1ccccc1F | -19 | 50[16.7 µM]
CCNC(=O)Nc1ccc2c(c1)C(=O)N(C)[C@@H]1CC[C@H](CC(=O)NCCN3CCCC3)O[C@H]1CO2 | -6 | -53[16.7 µM]
CN1CCN(C(=O)C[C@@H]2C[C@H]3c4cc(NC(=O)Nc5ccccc5F)ccc4O[C@H]3[C@@H](CO)O2)CC1 | -16 | 21[16.7 µM]
C[C@@H]1CN([C@@H](C)CO)C(=O)c2cc(NC(=O)Nc3ccc(C(F)(F)F)cc3)ccc2O[C@@H](C)CCCCO[C@@H]1CN(C)S(=O)(=O)c1ccccc1 | 1 | -6[16.7 µM]
C[C@H]1CN([C@@H](C)CO)C(=O)c2cc(C3=CCCCC3)cnc2O[C@@H]1CN(C)Cc1ccccc1C(=O)O | 1 | -18[16.7 µM]
C[C@H]1CN([C@@H](C)CO)C(=O)c2cc(-c3cccnc3)cnc2O[C@H]1CN(C)C(=O)Cc1cccnc1 | -12 | -21[16.7 µM]
O=C(C[C@H]1CC[C@H](NC(=O)NC2CCCCC2)[C@H](CO)O1)NCc1ccc(Cl)cc1 | -3 | 3[16.7 µM]
CCNC(=O)C[C@@H]1CC[C@H]2[C@H](COc3ccc(NC(=O)C4CCOCC4)cc3C(=O)N2C)O1 | 3 | -19[16.7 µM]
Cc1ccc(-c2ccc3c(c2)O[C@@H](CN(C)C(=O)C2CC2)[C@@H](C)CN([C@H](C)CO)S3(=O)=O)cc1 | 3 | -6[16.7 µM]
C[C@H](CO)N1C[C@H](C)[C@@H](CN(C)Cc2ccncc2)Oc2ncc(-c3ccc(C#N)cc3)cc2C1=O | -1 | -25[16.7 µM]
C[C@H](CO)N1C[C@H](C)[C@H](CN(C)Cc2ccccc2)Oc2ccc(NS(=O)(=O)c3ccccc3)cc2CC1=O | 2 | -32[16.7 µM]
C[C@H]1CCCCO[C@H](CN(C)Cc2ccccc2)[C@@H](C)CN([C@@H](C)CO)C(=O)c2cc(NC(=O)C3CCCCC3)ccc2O1 | 19 | 28[16.7 µM]
Cc1noc(C)c1NC(=O)N(C)C[C@@H]1Oc2ccc(NC(=O)CCC(F)(F)F)cc2CC(=O)N([C@@H](C)CO)C[C@H]1C | -5 | -9[16.7 µM]
C[C@@H]1CN([C@H](C)CO)C(=O)Cc2cc(NC(=O)Cn3cnnn3)ccc2O[C@H]1CN(C)C(=O)NC1CCCCC1 | -2 | -9[16.7 µM]
C[C@@H]1CCCCO[C@@H](CN(C)S(=O)(=O)c2ccc(F)cc2)[C@H](C)CN([C@H](C)CO)C(=O)c2cc(N(C)C)ccc2O1 | -11 | -9[16.7 µM]
C[C@@H]1CN([C@H](C)CO)C(=O)c2cc(NC(=O)CCC(F)(F)F)ccc2O[C@@H](C)CCCCO[C@H]1CN(C)C(=O)Nc1cccc2ccccc12 | 3 | 21[16.7 µM]
O=C(C[C@@H]1C[C@@H]2c3cc(NC(=O)CC4CC4)ccc3O[C@@H]2[C@H](CO)O1)NCCc1ccccc1 | 1 | 12[16.7 µM]
CCCNC(=O)Nc1ccc2c(c1)C(=O)N(C)C[C@@H](OC)[C@@H](C)CN(C(C)=O)[C@H](C)CO2 | -13 | 3[16.7 µM]
Cc1ccc(S(=O)(=O)Nc2ccc3c(c2)C(=O)N([C@H](C)CO)C[C@@H](C)[C@H](CN(C)C(=O)Nc2cccc4ccccc24)OCCCC[C@@H](C)O3)cc1 | -7 | 7[16.7 µM]
C[C@@H]1CN([C@@H](C)CO)C(=O)c2cc(C#Cc3ccc(F)cc3)cnc2O[C@H]1CN(C)C(=O)c1ccccc1F | -1 | 3[16.7 µM]
C[C@@H]1CN([C@@H](C)CO)C(=O)c2cc(-c3ccc(C#N)cc3)cnc2O[C@@H]1CN(C)Cc1cccnc1 | 12 | -18[16.7 µM]
O=C(Nc1cc(Cl)cc(Cl)c1)N[C@H]1CC[C@H](CCNS(=O)(=O)c2cccc(F)c2)O[C@H]1CO | -6 | 12[16.7 µM]
C[C@H](CO)N1C[C@H](C)[C@H](CN(C)S(=O)(=O)c2ccc(F)cc2)Oc2cc(C3=CCCC3)ccc2S1(=O)=O | -6 | 34[16.7 µM]
CC(C)NC(=O)Nc1ccc2c(c1)C(=O)N([C@@H](C)CO)C[C@@H](C)[C@H](CN(C)S(=O)(=O)c1cn(C)cn1)O2 | -3 | 1[16.7 µM]
O=C(N[C@@H]1CC[C@@H](CCn2cc(-c3ccccc3)nn2)O[C@H]1CO)c1cnccn1 | 11 | 1[16.7 µM]
COCC#Cc1ccc2c(c1)O[C@H](CN(C)C)[C@H](C)CN([C@@H](C)CO)S2(=O)=O | 0 | -6[16.7 µM]

Reformatted: results already given
COCC#Cc1ccc2c(c1)O[C@H](CN(C)C)[C@H](C)CN([C@@H](C)CO)S2(=O)=O
  UUG fidelity: 0 | HIV Env fusion: -6[16.7 µM]

O=C(C[C@@H]1C[C@@H]2c3cc(NC(=O)CC4CC4)ccc3O[C@@H]2[C@H](CO)O1)NCCc1ccccc1
  UUG fidelity: 1 | HIV Env fusion: 12[16.7 µM]

C[C@@H]1CN([C@@H](C)CO)C(=O)c2cc(-c3ccc(C#N)cc3)cnc2O[C@@H]1CN(C)Cc1cccnc1
  UUG fidelity: 12 | HIV Env fusion: -18[16.7 µM]

C[C@H](CO)N1C[C@H](C)[C@H](CN(C)S(=O)(=O)c2ccc(F)cc2)Oc2cc(C3=CCCC3)ccc2S1(=O)=O
  UUG fidelity: -6 | HIV Env fusion: 34[16.7 µM]

Other records follow.
SMILES | UUG fidelity | HIV Env fusion
C[C@H](CO)N1C[C@H](C)[C@H](CN(C)C(=O)Nc2cccc(F)c2)Oc2cc(/C=C/c3ccccc3)ccc2S1(=O)=O | 17 | 38[16.7 µM]
C[C@@H]1CCCCO[C@H](CN(C)S(C)(=O)=O)[C@H](C)CN([C@H](C)CO)C(=O)c2cc(N(C)C)ccc2O1 | -17 | -4[16.7 µM]
CNC(=O)C[C@H]1CC[C@H]2[C@@H](COc3ccc(NC(=O)c4ccc(F)cc4)cc3C(=O)N2C)O1 | 1 | -1[16.7 µM]
COc1ccc(S(=O)(=O)Nc2ccc3c(c2)C(=O)N([C@@H](C)CO)C[C@@H](C)[C@@H](CN(C)Cc2ccc4c(c2)OCO4)OCCCC[C@H](C)O3)cc1 | 9 | -299[16.7 µM]
O=C(C[C@H]1CC[C@@H](NC(=O)CN2CCOCC2)[C@@H](CO)O1)NCCc1ccccc1 | -13 | -16[16.7 µM]
C[C@@H]1CN([C@H](C)CO)C(=O)Cc2cc(NC(=O)Nc3ccc4c(c3)OCO4)ccc2O[C@H]1CN(C)Cc1ccc(Cl)c(Cl)c1 | -27 | 7[16.7 µM]
N#C[C@@H]1[C@H](c2ccc(C#CC3CCCC3)cc2)[C@H](CO)N1C(=O)Nc1ccc(F)cc1 | -24 | 36[16.7 µM]
Cc1noc(C)c1NC(=O)N(C)C[C@@H]1OCCCC[C@H](C)Oc2ccc(NS(=O)(=O)c3ccc(F)cc3)cc2C(=O)N([C@H](C)CO)C[C@@H]1C | 7 | 6[16.7 µM]
O=C(C[C@@H]1C[C@H]2c3cc(NC(=O)NC4CCCC4)ccc3O[C@H]2[C@H](CO)O1)NCc1cc(F)ccc1F | -7 | -7[16.7 µM]
C[C@@H]1CN([C@H](C)CO)S(=O)(=O)c2ccc(/C=C/c3ccccc3)cc2O[C@H]1CN(C)C(=O)c1ccccc1 | -9 | -18[16.7 µM]
COc1ccc(CN(C)C[C@@H]2Oc3ccc(NC(=O)Nc4ccc5c(c4)OCO5)cc3C(=O)N([C@H](C)CO)C[C@@H]2C)cc1 | 3 | 16[16.7 µM]
C[C@@H]1CCCCO[C@H](CN(C)S(=O)(=O)c2cccs2)[C@@H](C)CN([C@@H](C)CO)C(=O)c2cc(NS(=O)(=O)c3ccccc3)ccc2O1 | 14 | -42[16.7 µM]
C[C@H]1CN([C@@H](C)CO)C(=O)c2cc(-c3cncnc3)cnc2O[C@@H]1CN(C)Cc1cncnc1 | -15 | 12[16.7 µM]
COc1ccccc1-c1cnc2c(c1)C(=O)N([C@H](C)CO)C[C@@H](C)[C@@H](CN(C)Cc1cncnc1)O2 | -9 | 11[16.7 µM]
Cc1ccc(-c2cnc3c(c2)C(=O)N([C@H](C)CO)C[C@H](C)[C@@H](CN(C)C(=O)Cc2ccccc2)O3)cc1 | 19 | 6[16.7 µM]
COc1ccc(S(=O)(=O)Nc2ccc3c(c2)C(=O)N([C@H](C)CO)C[C@H](C)[C@H](CN(C)Cc2ccc(C(F)(F)F)cc2)OCCCC[C@@H](C)O3)cc1 | 6 | -21[16.7 µM]
Cc1noc(C)c1S(=O)(=O)N(C)C[C@@H]1OCCCC[C@H](C)Oc2ccc(NC(=O)Nc3ccccc3)cc2C(=O)N([C@H](C)CO)C[C@H]1C | -14 | 0[16.7 µM]
O=C(CCN1CCCCC1)NCC[C@@H]1CC[C@H](NC(=O)Nc2ccc(Cl)cc2)[C@H](CO)O1 | 5 | 0[16.7 µM]
COc1ccc(-c2ccc3c(c2)O[C@H](CN(C)C)[C@@H](C)CN([C@H](C)CO)S3(=O)=O)cc1 | -14 | -5[16.7 µM]
Cc1ccc(S(=O)(=O)N(C)C[C@H]2Oc3ccc(NC(=O)Nc4c(C)noc4C)cc3C(=O)N([C@@H](C)CO)C[C@H]2C)cc1 | -4 | 9[16.7 µM]
C[C@@H]1CN([C@H](C)CO)C(=O)c2cc(C#CC3CC3)cnc2O[C@H]1CN(C)Cc1ccccn1 | -26 | -11[16.7 µM]
Cc1noc(C)c1S(=O)(=O)Nc1cccc2c1O[C@@H](CN(C)Cc1ccc(C(=O)O)cc1)[C@@H](C)CN([C@@H](C)CO)C2=O | -7 | -3[16.7 µM]
O=C(C[C@@H]1CC[C@H]2[C@@H](COC[C@H](O)CN2CCc2ccccc2)O1)NCc1ccccc1 | -15 | 10[16.7 µM]
CCCC#Cc1ccc2c(c1)O[C@H](CN(C)S(=O)(=O)c1cccc(F)c1)[C@H](C)CN([C@H](C)CO)S2(=O)=O | -9 | 43[16.7 µM]
C[C@@H]1CN([C@H](C)CO)C(=O)c2cc(C#CC3(O)CCCC3)cnc2O[C@H]1CN(C)C(=O)CN(C)C | 18 | -2[16.7 µM]
C[C@@H]1CCCCO[C@@H](CN(C)Cc2ccc3c(c2)OCO3)[C@H](C)CN([C@@H](C)CO)C(=O)c2cc(N(C)C)ccc2O1 | 13 | -4&14[16.7 µM]
C[C@H]1CN([C@@H](C)CO)S(=O)(=O)c2ccc(Br)cc2O[C@H]1CN(C)S(C)(=O)=O | 20 | 9[16.7 µM]
CO[C@@H]1CN(C)C(=O)c2ccc(NC(=O)c3ccccc3)cc2OC[C@@H](C)N(C(=O)CN(C)C)C[C@H]1C | 3 | -6[16.7 µM]
C[C@@H]1CN([C@@H](C)CO)C(=O)c2cc(NC(=O)c3ccncc3)ccc2O[C@H]1CN(C)Cc1ccc2c(c1)OCO2 | -5 | -6[16.7 µM]

Assay outcomes (PubChem)

Some of the compounds tested. The share of hits here may be higher or lower than overall.
